Mtb betalactam: beta-lactam sensitization of Mtb H37Rv; M. tuberculosis H37Rv growth with meropenem, percent inhibition; hits of this screen are not shown here; AID 434955; inhibition, % at 25 µM; hit rate 0.27% among 330,000;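 active means about 74% or more and at least 40 points above the plate without the antibiotic, then above 30% in a dose series; inconclusive means first-round hits that could not be retested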;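 further: growth measured after seven days incubation then overnight dye step; 0% = bacteria only wells and 100% = bacteria with antibiotic; twin plates without the antibiotic show which effects depend on it; some results filed as inactive read as strong as hits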
Active calls of the source: *; ? = inconclusive. The list is partial, so the mix of outcomes need not match the whole.

SMILES	Mtb betalactam
Cc1ccc(NC(=O)NC(=O)COc2ccccc2C(N)=O)c(C)c1	-6
O=C(NCc1ccc(F)cc1)c1ccc(NC(=O)C2CCCO2)cc1 (stereo not given)	2
C[C@H]1COC(=O)[C@@H](NC(=O)OCC2c3ccccc3-c3ccccc32)C/C=C\C[C@H](CC(=O)NCCO)C(=O)N1	-2
C=C(C=O)CC1CC(O)[C@]2(C)OC3C[C@@H]4OC5C[C@]6(C)O[C@]7(C)CCC8OC9C[C@]%10(C)OC(/C(C)=C\CO)C(O)CC%10OC9CC(C)C8OC7CC6O[C@]5(C)C/C=C\C4OC3CC2O1 (stereo not given in full)	-8
CCC(CO)Oc1cc(NCc2cccc(C(F)(F)F)c2)c2ncn(C(C)C)c2c1 (stereo not given)	-9
COC(=O)c1cc(C(=O)OCC(=O)NC(=O)NCc2ccccc2)cc([N+](=O)[O-])c1	2
NC(=O)c1ccsc1NC(=O)COC(=O)CNC(=O)c1ccc(Cl)cc1	2
O=C(COC(=O)c1c[nH]c2ccccc12)Nc1ccccc1	-3
Cn1c2ccsc2c2ncn(Cc3ccc(F)cc3)c(=O)c21	-2
CCc1nnc(NC(=O)CN2C(=O)N(C)C3(CCCCC3)C2=O)s1	-11
CC1CN(S(=O)(=O)c2ccc(C(=O)N(C)C3CCCCC3)cc2)CC(C)O1 (stereo not given)	-5
O=C(COC(=O)[C@@H]1CCCN1C(=O)c1cccs1)Nc1cccc(Cl)c1	-6
CN1CCN(CC(=O)Nc2cccc(S(=O)(=O)N(C)c3ccccc3)c2)CC1	-5
O=C(OCC(=O)N1CCCCC1)c1cc(=O)[nH]c2ccccc12	-1
CCC(C)CCN1C(N(C)C)=NC[C@@H]1CC(C)C (stereo not given in full)	-7
COc1ccc(/C=C/C(=O)OCC(=O)NCc2ccccc2Cl)cc1OC	1
CCN1CCN(c2ccc(Cl)cc2NC(=O)c2ccco2)CC1	-6
CN(Cc1ccc(C(F)(F)F)cc1)C(=O)C1CC(=O)N(Cc2ccco2)C1 (stereo not given)	-1
CCc1ccc(OCC(=O)N2CCN(CC(=O)Nc3ccccc3Cl)CC2)cc1	4
CCN(CC(=O)NCc1cccs1)S(=O)(=O)c1c(F)cccc1F	-8
Cc1ccc(NC(=O)COC(=O)CC2CC3CCC2C3)cc1S(=O)(=O)N1CCOCC1 (stereo not given)	-5
O=C(COc1ccc(S(=O)(=O)N2CCCC2)cc1)NCc1ccccn1	-1
CC(C)[C@H](NC(=O)OCc1ccccc1)C(=O)OCC(=O)N1CCN(c2ccc(F)cc2)CC1	-2
CCN1CCN(S(=O)(=O)c2ccc(Cl)c(C(=O)NCc3nc4ccccc4[nH]3)c2)CC1	1
COc1ccc(N2CCN(c3ncnc4sc(C(=O)NCC5CCCO5)c(C)c34)CC2)cc1 (stereo not given)	4
CCOc1ccc(OCCC(=O)N(CC)CC(=O)NCc2cccs2)cc1	-13
O=C(Cc1c(Cl)cccc1Cl)OCC(=O)N1CCOCC1	-2
COc1ccccc1CCNC(=O)c1cccc(S(=O)(=O)N2CCc3ccccc3C2)c1	-2
O=C(CCc1ccccc1)Nc1ccc(S(=O)(=O)NC2=NCCCCC2)cc1	2
CCCCCCCNC(=O)C1(CC2CC(c3cccc(Br)c3)=NO2)CCN(C(=O)Cc2ccc(F)cc2)CC1 (stereo not given)	-2
COc1ccc(-c2ccc3c(c2)S(=O)(=O)c2cccc(C(=O)NCc4ccccc4Cl)c2C3=O)cc1OC	-10
CCOc1ccc(S(=O)(=O)Nc2cc(NS(=O)(=O)c3ccc(OCC)cc3)cc(C(=O)O)c2)cc1	7
COc1ccc(NC(=O)Nc2ccc3c(c2)C(=O)N([C@H](C)CO)C[C@H](C)[C@@H](CN(C)C(=O)NC2CCCCC2)O3)cc1	-3
CCN(CC)CCCNC(=S)N1CCN(c2nc(-c3ccc(F)cc3)cs2)CC1	14
COC(=O)c1ccc(/C=C/C(=O)OCC(=O)Nc2cc(C)on2)cc1	1
COc1ccccc1CNC(=O)CN1C(=O)NC2(CCCCCCC2)C1=O	3
CCCCCCCCC(=O)NCc1ccc(O)c(OC)c1	-5
Cc1cc(C)n2nc(C(=O)OCC(=O)NCc3ccccc3)nc2n1	3
COc1ccc(OC)c(NC(=O)COC(=O)Cc2ccsc2)c1	4
COc1ccc(OCCn2ccnc2C)cc1	-1
Cc1noc(C)c1COc1ccc(C(=O)N2CCN(S(=O)(=O)c3cccc(F)c3)CC2)cc1	-5
COc1ccc(C(=O)OCC(=O)Nc2c(C)n(C)n(-c3ccccc3)c2=O)cc1	-3
O=C(CCS(=O)(=O)c1ccccc1F)Nc1ccc(N2CCN(Cc3ccccc3)CC2)cc1	19
COc1ccc(C(=O)NCC(C)NC(=O)c2ccc(OC)c(OC)c2)cc1OC (stereo not given)	-11
CCC(=O)c1ccc(OCC(=O)Nc2cccc(S(=O)(=O)N(C)c3ccccc3)c2)cc1	-2
COc1ccccc1NC(=O)C(C)N1C(=O)C2CCCCC2C1=O (stereo not given)	1
Cc1ccc(S(=O)(=O)N2CCC[C@H]2C(=O)Nc2ccccc2Cl)cc1	-3
O=C(CN1CCN(S(=O)(=O)c2cccs2)CC1)NCC1CCCCC1	-7
CCOC(=O)C1=C(C)NC(C)=C(C(=O)OCC)C1C(=O)OCC(=O)N1CCOCC1	-1
Cc1nn(C)c(C(=O)N/N=C/c2cccnc2)c1Cl	0
CC(=O)c1ccc(NC2=NCCCS2)cc1	4
CC(C)c1ccc(C(=O)CN2C(=O)NC3(CCc4ccccc43)C2=O)cc1 (stereo not given)	-2
COc1ccc2cc1Oc1ccc(cc1)C[C@H]1c3c(cc(OC)c4c3Oc3c(ccc5c3[C@H](C2)N(C)CC5)O4)CCN1C	100
N#CC1(c2ccccc2)CCC(=NNS(=O)(=O)c2ccccc2)CC1 (stereo not given)	-4
C[C@H]1CN([C@@H](C)CO)C(=O)c2cccc(NC(=O)c3ccc(-c4nccs4)cc3)c2O[C@@H]1CN(C)C(=O)Nc1cccc2ccccc12	0
COc1ccc(/C=N/NC(=O)c2ccc3c(c2)OCO3)c(C(=O)O)c1OC	3
O=C(c1ccc2c(=O)n(Cc3ccccc3)c(=S)[nH]c2c1)N1CCCC1	-2
CN(Cc1ccccc1)C(=O)COC(=O)Cc1ccc(Cl)cc1	15
CCOc1ccc(NC(=O)N(c2ccccc2)c2ccccc2)cc1	-4
COC(=O)C1=C(c2ccc(-c3ccccc3)c(F)c2)C[C@@H]2CC[C@H]1N2C(=O)NCc1cc(C)oc1C(F)(F)F	0

Three structures already listed, arranged by number of heavy atoms, descending.
SMILES	Mtb betalactam
COc1ccccc1NC(=O)C(C)N1C(=O)C2CCCCC2C1=O (stereo not given)	1
Cc1nn(C)c(C(=O)N/N=C/c2cccnc2)c1Cl	0
CC(=O)c1ccc(NC2=NCCCS2)cc1	4

Looked up one by one from the entries so far, 5 records:
SMILES	Mtb betalactam
C[C@H]1CN([C@@H](C)CO)C(=O)c2cccc(NC(=O)c3ccc(-c4nccs4)cc3)c2O[C@@H]1CN(C)C(=O)Nc1cccc2ccccc12	0
CCOC(=O)C1=C(C)NC(C)=C(C(=O)OCC)C1C(=O)OCC(=O)N1CCOCC1	-1
O=C(CCS(=O)(=O)c1ccccc1F)Nc1ccc(N2CCN(Cc3ccccc3)CC2)cc1	19
O=C(c1ccc2c(=O)n(Cc3ccccc3)c(=S)[nH]c2c1)N1CCCC1	-2
CCC(=O)c1ccc(OCC(=O)Nc2cccc(S(=O)(=O)N(C)c3ccccc3)c2)cc1	-2

Next section.
SMILES	Mtb betalactam
O=C(COC(=O)CNC(=O)c1ccc(Cl)cc1)Nc1ccc(Cl)cn1	-6
Cc1c(NC(=O)[C@@H](NC(=O)c2ccc(Cl)c([N+](=O)[O-])c2)C(C)C)c(=O)n(-c2ccccc2)n1C	-4
CN(Cc1ccccc1N1CCCC1)C(=O)c1cc2ccccc2o1	4
NC(=O)Nc1ccc(C(=O)OCC(=O)N2CCCC2=O)cc1	-2
COc1ccccc1N(CC(=O)NCCSCc1cccc(C)c1)S(=O)(=O)c1ccccc1	-12
Cc1nnc(SCC(=O)NC2CCCCCC2)n1N	3
c1ccc2occc2c1	7
CC(=O)Nc1ccc(NC(=O)C(C)OC(=O)c2ccc(S(=O)(=O)N3CCCCCC3)cc2)cc1 (stereo not given)	2
COc1ccc(S(=O)(=O)Oc2ccccc2C(=S)N2CCOCC2)cc1	?
COc1ccc(S(=O)(=O)N(C)C[C@H]2Oc3c(NS(=O)(=O)c4ccc(F)cc4)cccc3C(=O)N([C@H](C)CO)C[C@@H]2C)cc1	-2
CCOc1ccc2[nH]c3c(c2c1)CNCC3	8
CCN(C(=O)CSc1nc(N)cc(=O)[nH]1)C1CCS(=O)(=O)C1 (stereo not given)	3
COc1cc(OC)cc(-c2c(-c3cccs3)c3cc(-c4ccc(OC)cc4F)ccc3n2C)c1	6
COC(=O)C1=C(C)N(Cc2ccccc2)C(=NCc2cc(OC)c(OC)c(OC)c2)N[C@H]1CCc1ccccc1	51
CC(C)C(NC(=O)Cc1ccccc1)C(=O)N1CCN(c2cccc(Cl)c2)CC1 (stereo not given)	-1
O=C1c2ccc(-c3ccc(F)cc3OCc3ccccc3)cc2S(=O)(=O)c2cccc(C(=O)N3CCCC3)c21	4
Cc1noc(C)c1S(=O)(=O)Nc1ccc2c(c1)C(=O)N([C@H](C)CO)C[C@@H](C)[C@@H](CN(C)Cc1ccc3c(c1)OCO3)O2	-6
Cc1ccc(S(=O)(=O)NCC(=O)NCC(=O)NCCc2ccccc2F)cc1C	-4
CC(Sc1nnc2n1CCCCC2)C(=O)Nc1ccccc1[N+](=O)[O-] (stereo not given)	0
O=C(COC(=O)c1cccnc1Cl)NCc1ccc(F)cc1	-3
O=C1CCCC/C=C\C[C@H](CC(=O)N(CCO)Cc2ccccc2)C(=O)N[C@@H](Cc2ccccc2)CO1	2
O=C(CN1CCc2ccccc2C1)Nc1ccccc1C(F)(F)F	0
COc1ccc(CC(=O)OCC(=O)Nc2ccc(OC(F)F)cc2)cc1OC	2
COc1ccc(S(=O)(=O)Nc2ccc(C)cn2)cc1	-12
CCOC(=O)N1CCN(C(=O)CSc2nc3nc(C)cc(C)n3n2)CC1	-2
CCc1ccc(N2CC(C(=O)OCc3nc4ccsc4c(=O)[nH]3)CC2=O)cc1 (stereo not given)	-2
C[C@H](CO)N1C[C@H](C)[C@@H](CN(C)C(=O)Nc2ccc3c(c2)OCO3)Oc2c(NS(=O)(=O)c3cn(C)cn3)cccc2C1=O	4
O=C(COC(=O)c1cc(S(=O)(=O)N2CCCC2)ccc1O)Nc1ccccc1Br	2
Cc1ccc2ccc3cccc4ccc1c2c34	63
CC(NC(=O)COC(=O)CNC(=O)c1ccccc1Cl)C1CC2CCC1C2 (stereo not given)	2
COc1ccc(CCNC(=O)c2ccc(Cl)c(S(=O)(=O)N3CCCC3)c2)cc1	-2
CCn1nc(C(=O)Nc2cccc(S(=O)(=O)N3CCCC3)c2)c2ccccc2c1=O	-2
CCN(CC(=O)Nc1c(F)cccc1F)C(=O)c1ccc2c(c1)OCO2	-4
CSCCC1NC(=O)N(CC(=O)Nc2ccc3c(c2)OCCO3)C1=O (stereo not given)	-1
COc1cccc(NC(=O)CN(C)C(=O)c2cccc(S(=O)(=O)Nc3ccc(C)cc3)c2)c1	-6
Cc1cc(C)n(CC(=O)NNC(=O)c2ccc(NC(=O)CC#N)cc2)n1	-1
CN(CC(=O)Nc1ccccc1C(F)(F)F)C(=O)Cc1ccccc1F	0
CCCCC(=O)Nc1ccc(C)c(S(=O)(=O)N2CCCCCC2)c1	0
O=C(CN1CCN(C(C(=O)Nc2ccc(F)cc2)c2ccccc2)CC1)NC1CC1 (stereo not given)	-6
COc1cc(OC)cc(-c2c(C#Cc3ccsc3)c3cc(-c4ccc(C(N)=O)cc4)ccc3n2C)c1	6
O=C(NNC(=O)c1ccc(Cl)c(Cl)c1)c1cccnc1	-4
Cn1c(SCC(=O)Nc2sccc2C#N)nnc1C1CC1	-5
COC(=O)C1=C(c2ccc3ccccc3c2)C[C@@H]2CC[C@H]1N2C(=O)NCc1ccco1	-2
O=C(OCC(=O)c1ccc[nH]1)c1ccc([N+](=O)[O-])cc1	80
NC(=O)c1nc[nH]c1C(=O)Nc1cccc(C(F)(F)F)c1	14
CCC(C)N(C(=O)COC(=O)CN=C1NS(=O)(=O)c2ccccc21)C1CCS(=O)(=O)C1 (stereo not given)	-5
COc1cc(C(=O)NNC(=O)C2CCC2)cc(OC)c1OC	-2
CC(C)(C)NC(=O)[C@]1(C)CCC[C@@]2(C)C3CC[C@@]4(C)C[C@]3(CCC21)CC4=O (stereo not given in full)	-1
COc1ccccc1NS(=O)(=O)c1cc(NC(=O)c2ccc(Cl)nc2)ccc1N1CCCC1	10
N#Cc1ccc(C(=O)OCCCc2cc3ccccc3c(=O)o2)cc1	6
CCC1Nc2ncnc(N3CCCCC3)c2N(Cc2ccc(Cl)cc2)C1=O (stereo not given)	-5
CC1CCc2sc(C(=O)NCC(c3ccco3)N3CCCCC3)cc2C1 (stereo not given)	-3
CC1CN(CCOCCSc2ccc(Cl)cc2)CC(C)O1 (stereo not given)	-4
CN(C(=O)CSc1nnc(Cc2ccccc2F)n1N)C1CCCCC1	7

As entered above:
CCC(C)N(C(=O)COC(=O)CN=C1NS(=O)(=O)c2ccccc21)C1CCS(=O)(=O)C1 (stereo not given) | Mtb betalactam = -5
O=C(NNC(=O)c1ccc(Cl)c(Cl)c1)c1cccnc1 | Mtb betalactam = -4
CCC1Nc2ncnc(N3CCCCC3)c2N(Cc2ccc(Cl)cc2)C1=O (stereo not given) | Mtb betalactam = -5
CC(C)(C)NC(=O)[C@]1(C)CCC[C@@]2(C)C3CC[C@@]4(C)C[C@]3(CCC21)CC4=O (stereo not given in full) | Mtb betalactam = -1
COc1ccccc1NS(=O)(=O)c1cc(NC(=O)c2ccc(Cl)nc2)ccc1N1CCCC1 | Mtb betalactam = 10
NC(=O)c1nc[nH]c1C(=O)Nc1cccc(C(F)(F)F)c1 | Mtb betalactam = 14

Source: PubChem
